Screening results as filed in PubChem BioAssay.
Mtb H37Rv = Confirmatory growth inhibition assay against Mycobacterium tuberculosis H37Rv, potency (AID 1949). inhibition, % at 10 µg/mL; hits with a dose series show IC50 in µg/mL. 1.6% of 100,000 active. most inactive calls were filed without a number and no value below 0 was filed;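 active means confirmed in a dose series; inconclusive means about 50% or more but not retested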;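 further: bacteria grown 7 days with compound before Alamar blue readout; 0% = untreated bacteria and 100% = reference antibiotic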
* hit, by the source's call; i = inactive; u = inconclusive.

compound | Mtb H37Rv
O=C(CN1CCOCC1)n1c2c(c3ccccc31)CCCC2 | i
CCCOc1ccc(-c2nc(C#N)c(NCCCOC)o2)cc1 | i
CCN(CC)S(=O)(=O)c1ccc(C)c(C(=O)O)c1 | i
Cc1ccc(C)c(NC(=O)CSc2nnc(CSCc3ccccc3)n2C)c1 | i
O=C(CSc1ncc(-c2ccccc2)n1-c1ccccc1)NCc1ccco1 | i
Cc1cccc(-c2nnc(SCC(=O)c3cccs3)o2)c1 | i
Cc1ccc(NC(=O)Nc2ccc(Cc3ccncc3)cc2)cc1C | 4.4%
COc1ccc(C(=O)Nc2nnc(C)s2)c(OC)c1 | 3.9%
Cn1c(SCC(=O)Nc2cc(C(F)(F)F)ccc2Cl)nnc1-c1ccccc1Cl | 2.9%
CCOC(=O)CSc1nnc(-c2ccncc2)o1 | i
COc1cc(C=O)ccc1OCC(=O)Nc1ccc(Br)c(Cl)c1 | i
CC(Sc1nc(O)c(-c2ccccc2)c(=O)[nH]1)C(=O)Nc1ccc(Cl)cc1 (stereo not drawn) | u
O=C(Cc1ccc(Br)cc1)Nc1nncs1 | i
COc1ccc(C2C3=C(CC(C)(C)CC3=O)N(c3ccccc3)C3=C2C(=O)CC(C)(C)C3)cc1OC | i
COc1ccc(C(=O)Oc2ccc3c(=O)c(Oc4ccccc4Cl)coc3c2)cc1OC | i
Cc1ccc([N+](=O)[O-])cc1NC(=O)COc1cccc(C)c1C | 1.9%
O=C(Nc1ccccc1Br)NS(=O)(=O)c1ccccc1Cl | 0.6%
COC(=O)c1ccc(C(=O)OCC(=O)c2ccccc2)cc1-c1ccccc1 | i
C#CCOc1ccc(CNc2ccc(C)c(Cl)c2)cc1OCC | i
O=C(O)CNc1ncnc2scc(-c3ccccc3)c12 | i
COc1ccc(OC)c(NC(=S)NC(=O)c2cc(Br)cc(C)c2OC)c1 | 3.6%
COc1ccc(-n2nnnc2SCC(=O)N2CCOCC2)cc1 | i
Cc1ccc(CC(=O)Nc2ccc(Br)cc2C)cc1 | i
COc1ccc(CCNCc2cccnc2)cc1OC | 6.4%

The final five entries of the section before come first, to join the parts:
compound | Mtb H37Rv
O=C(O)CNc1ncnc2scc(-c3ccccc3)c12 | i
COc1ccc(OC)c(NC(=S)NC(=O)c2cc(Br)cc(C)c2OC)c1 | 3.6%
COc1ccc(-n2nnnc2SCC(=O)N2CCOCC2)cc1 | i
Cc1ccc(CC(=O)Nc2ccc(Br)cc2C)cc1 | i
COc1ccc(CCNCc2cccnc2)cc1OC | 6.4%
Cc1ccc(C(=O)O/N=C(\N)c2ccncc2)cc1 | i
COc1cccc(N(CC(=O)NCCSCc2c(Cl)cccc2Cl)S(C)(=O)=O)c1 | i
C(#Cc1ccccc1)CNCCc1c[nH]c2ccccc12 | u
O=C(CSc1nnc2ccccn12)Nc1ccc(-c2nc3ccccc3s2)cc1 | i
COc1ccccc1N1CCN(C(=O)CN(c2cccc(Br)c2)S(C)(=O)=O)CC1 | i
COc1cc(C(=O)Oc2ccc(C(=O)Nc3ccc(C)cc3C)cc2)cc(OC)c1OC | i
O=C(Cc1cc2ccccc2oc1=O)c1ccccc1 | i
NS(=O)(=O)c1ccc(CCNC(=O)C(Sc2ccccc2)c2ccccc2)cc1 (stereo not drawn) | i
CC(C)(C)c1ccc(-c2oc3ccccc3c(=O)c2OCC(N)=O)cc1 | 27.6%
CSc1nc2nc3c(c(=O)n2[nH]1)CCCC3 | 2.96µg/mL*
CCC1(C)Cc2c(sc3c2c(=O)n(C)c2nnc(SCC(=O)c4ccccc4)n32)CO1 (stereo not drawn) | i
O=C(Nc1ccc(S(=O)(=O)Nc2ccccn2)cc1)c1ccccc1F | i
COc1ccc(C2C(C(=O)N3CCOCC3)=C(C)NC3=C2C(=O)CCC3)cc1Br (stereo not drawn) | i
COc1cc(C(=S)N2CCCC2)ccc1OCc1ccc(C)cc1 | i
CCOc1cc(OCC)cc(C(=O)Nc2cccc(C(C)=O)c2)c1 | i
NC(=O)c1ccc(NC(=O)CN(Cc2ccc(F)cc2)S(=O)(=O)c2ccccc2)cc1 | i
Cc1ccc(NC(=O)c2cn(-c3ccccc3)nc2-c2ccc(F)cc2)cc1[N+](=O)[O-] | i
CN1CCN(C(=O)CN(C2CCCCC2)S(=O)(=O)c2ccc(F)cc2)CC1 | i
CC1(C)CC(=O)c2cc(C(=O)Nn3cnnc3)c(=O)n(-c3ccccc3)c2C1 | i
CC(=O)c1ccc(N2CCN(C(=O)Cc3ccc(Cl)cc3)CC2)cc1 | i
CC(C(=O)N1CCN(c2ccccc2F)CC1)N1C(=O)c2ccccc2C1=O (stereo not drawn) | i
O=C(CSc1nnc2ccccn12)N1CCN(c2nnnn2-c2ccccc2)CC1 | i
O=c1nc(-c2ccccc2)c(-c2ccccc2)n[nH]1 | i
CCn1cc(Br)c(-c2nc3ccccc3c(=O)n2N)n1 | 4.6%
CN1C(=O)C(Cc2c[nH]c3ccccc23)C(=O)N(C)C1=O | i
CCCOCCOC(=O)C1=C(C)NC2=C(C(=O)CC(C)(C)C2)C1c1cc2c(cc1Br)OCO2 (stereo not drawn) | i
CCOC(=O)Nc1nc(-c2ccc(C(C)(C)C)cc2)cs1 | i
O=C(CSCc1ccc(Br)cc1)NCC1CCCO1 (stereo not drawn) | i
Cc1ccc(C(NC(=O)C2CCCCC2)c2ccc3cccnc3c2O)cc1 (stereo not drawn) | 0.3%
O=C(c1cccc(F)c1F)N1CCCCCC1 | i
CC(=O)c1ccc2[nH]c3ccc(C(C)=O)cc3c2c1 | 0.2µg/mL*
CC(=O)c1ccccc1OC(=O)CCN1C(=O)C2C3c4ccccc4C(c4ccccc43)C2C1=O (stereo not drawn) | i
Cc1c(C(=O)NC(=S)Nc2cc(-c3nc4ccccc4s3)ccc2Cl)oc2ccccc12 | 1.4%
O=C(Nc1ccc(Cl)cc1C(=O)NCc1cccnc1)c1ccc(Cl)cc1Cl | 15.5%
Cc1c(C)n(Cc2ccccc2)c2ccc(C(=O)NNC(=S)NCC3CCCO3)cc12 (stereo not drawn) | i
C1=Nc2ccccc2-c2nnc(SCc3ccccc3)nc2O1 | i
CC(CNC(=O)C(=O)Nc1ccc(C(C)(C)C)cc1)c1ccccc1 (stereo not drawn) | i
CCc1ccc(OCC(=O)Nc2cc(OC)ccc2OC)c(Br)c1 | i
CC(NC(=S)N1CCN(CCO)CC1)C12CC3CC(CC(C3)C1)C2 (stereo not drawn) | i
O=C(CSc1nnc(CN2CCOCC2)n1-c1ccccc1)N1CCc2ccccc21 | 0.2%
COc1cc(C)c(NC(=O)c2ccccc2I)cc1C(C)C | 37.0%
Cc1ccc(NS(=O)(=O)c2ccc(NC(=O)c3ccc(-c4ccccc4)cc3)cc2)c(C)c1 | 2.5%
O=C(NCc1ccc2c(c1)OCO2)c1ccccc1C(=O)NCc1ccc2c(c1)OCO2 | i
O=C1OC(c2nn3c(-c4ccccc4)nnc3s2)Cc2ccccc21 (stereo not drawn) | i
O=c1c2ccccc2nc(/C=C/c2cccnc2)n1Cc1ccccc1 | 47.4%
COc1cccc(-n2c(-c3cccc([N+](=O)[O-])c3)nc(=S)c3c2CCCC3)c1 | i
O=C(c1cn(-c2ccccc2)nc1-c1ccc2c(c1)OCCO2)N1CCCCC1 | i
CN(C)CCN1C(=O)c2oc3ccccc3c(=O)c2C1c1cccnc1 (stereo not drawn) | i
Oc1ccc(Cl)cc1CNc1ccccn1 | i
Cc1cccc(C)c1N(CC(=O)NC1CCCC1)S(C)(=O)=O | i
CCOCc1ccc(O)c2ncccc12 | 45.0%
Cc1ccccc1NC(=O)C(=O)NC1CC(C)(C)NC(C)(C)C1 | i
CCC1=NN(C(=O)c2ccc(C)o2)C(O)(C(F)(F)F)C1 (stereo not drawn) | i
CCOC(=O)C1CCN(C(=O)c2ccc(C)c(S(=O)(=O)Nc3cccc(C)c3)c2)CC1 | i
O=C(NCc1cccnc1)c1sc2cc(Cl)ccc2c1Cl | 26.2%
Cc1c(CSc2nnnn2-c2ccccc2)cccc1-c1ccccc1 | i
CCCC(=O)Nc1ccc2c(c1)ncn2CC | i
O=C(COc1ccccc1F)NCc1ccccc1 | i
Cc1ccc(N(CC(=O)N2CCCCCC2)S(C)(=O)=O)c(C)c1 | i
CCCOc1cccc(C2C(C(=O)c3sc(C)nc3C)=C(O)C(=O)N2CCCN(C)C)c1 (stereo not drawn) | i

(listing goes on)
compound | Mtb H37Rv
COc1cc(NC(=O)c2nc3nc(C)cc(C(F)F)n3n2)cc(OC)c1OC | i
CC(C)c1ccc(OCc2cccc(C(=O)NC(C)(C)C)c2)cc1 | i
O=C1CC(c2ccccc2)CC2=C1C(c1ccccc1)Nc1ccccc1N2 (stereo not drawn) | i
CCOC(=O)c1ccc(NC(=S)NCCCN2CCCCC2)cc1 | i
O=C(CN(Cc1ccc(F)cc1)S(=O)(=O)c1ccccc1)Nc1ccccc1Br | i
COc1cc(CNC(C)(C)CO)ccc1OCc1ccccc1 | i
CC(C)c1ncc(C(O)c2cccc3ccccc23)n1C (stereo not drawn) | i
Cc1ccc(Cl)cc1N1CCN(C(=O)CN(c2ccc(I)cc2)S(C)(=O)=O)CC1 | 11.3%
Cc1c(OCc2cccc(F)c2)ccc2c3c(c(=O)oc12)CCCC3 | i
CCCOc1ccc2c(C(F)(F)F)cc(=O)oc2c1C | i
Cn1nc([N+](=O)[O-])nc1Sc1nnc(-c2ccncc2)o1 | i
CNC(=O)c1cc(OC)c(OC)cc1OC | i
Nc1nc(-c2cccnc2)nc(-c2cccnc2)n1 | 2.9%
O=C(Nc1ccccc1I)c1cc2sc3ccccc3c2s1 | 1.5%
COc1ccc(NC(=S)N2CCN(Cc3ccc(Cl)c(Cl)c3)CC2)cc1OC | 0.6%
O=C(CN1C(=O)C2C3CCC(C3)C2C1=O)Nc1ccc(Cl)cc1Cl (stereo not drawn) | 2.4%
CCOC(=O)C1CCN(C2CC(=O)N(c3ccc(OCC)cc3)C2=O)CC1 (stereo not drawn) | i
O=C(O)C1CCCCC1C(=O)Nc1ccc(C(=O)N2CCCCC2)cc1 (stereo not drawn) | i
Cc1cc(C)n(C(=O)c2cccc(S(=O)(=O)N3CCCCC3)c2)n1 | i
Cc1nc(NC(=O)c2c(F)c(F)c(F)c(F)c2F)ccc1I | u
COc1ccc(CNC(=O)c2ccc(Br)o2)cc1 | i
Cc1c(C(=O)NCCc2ccc(Cl)cc2)oc2ccccc12 | i
O=C(C1c2ccccc2Oc2ccccc21)N1CCN(Cc2ccccc2)CC1 | 1.7%
CC(C)CNS(=O)(=O)c1ccc(OCC(=O)Nc2cccc(Br)c2)c(Cl)c1 | i
CC(O)CN(N)C1=NS(=O)(=O)c2ccccc21 (stereo not drawn) | 0.4%
Cc1cccc(N2CCN(C(=S)Nc3ccc(F)cc3)CC2)c1C | i
CN(c1ccccc1C(=O)Nc1ccccc1Br)S(C)(=O)=O | i
CCOc1ccccc1NC(=O)c1sc2cccc(Cl)c2c1Cl | i
COc1ccc(OC(=O)COc2ccc(Cl)cc2C)cc1 | i
Cc1cc(-c2ccccc2)nc(SCC(=O)Nc2ccccc2C#N)n1 | i
CC(C)(C)c1cc(NC(=O)c2ccc(S(=O)(=O)c3ccccc3)cc2)no1 | i
Cc1ccc(S(=O)(=O)N(CC(=O)Nc2ccc(C(N)=O)cc2)Cc2ccc(F)cc2)cc1 | i
CC1CN(c2ccccc2)C(=O)CS1 (stereo not drawn) | i
O=C(CC1(O)C(=O)N(Cc2ccccc2Cl)c2ccccc21)c1ccco1 (stereo not drawn) | 1.3%
O=C(COc1ccccc1F)N1CCCC1 | i
Cc1cccc(C(=O)Nc2c(C(=O)N3CCC(Cc4ccccc4)CC3)cnn2-c2ccccc2)c1 | 4.0%
CCCOc1c(Cl)cc(C(=O)NC)cc1OC | 1.2%
O=C(CCc1ccccc1)NCc1ccc(F)cc1 | i
O=C(COc1ccc(Cl)cc1)N1CCN(C(=O)c2ccccc2F)CC1 | i
O=C(Nc1ccc(F)cc1F)NN1CCOCC1 | i
O=C(Nc1cc(NC(=O)c2ccccc2)cc(C(=O)Nc2ccc3ccccc3c2)c1)c1ccccc1 | i
COC(=O)c1cccc(NC(=S)N2CCN(c3ccccc3F)CC2)c1 | 3.9%
C=COC(=O)CSc1nc(-c2ccccc2)cc(-c2ccc(OC)cc2)c1C#N | 1.0%
COCc1cc(C)nc2sc(C(=O)Nc3cccc(C(C)=O)c3)c(N)c12 | 2.2%
COC(=O)C(C)Sc1nnc(-c2ccc(Br)cc2)o1 (stereo not drawn) | 0.99µg/mL*
Cc1ccc(S(=O)(=O)N2CCC(C(=O)N3CCN(c4ccc(F)cc4)CC3)CC2)cc1 | i
CCOc1ccc(C(=O)Nc2sc3c(c2C(N)=O)CCCC3)cc1Br | i
O=C(CSc1nc2ccccc2s1)N1CCN(CCO)CC1 | i
COc1cc(C(=O)Nc2ccc(OCC(=O)O)cc2)ccc1OC(C)=O | i
O=C(Nc1ccccc1O)N1c2ccccc2Sc2ccccc21 | i
COc1ccc(OCC(O)COc2ccc(OC)cc2)cc1 | i
CN(C(=O)CCN1C(=O)C(C)(C)Nc2ccccc21)c1ccccc1 | i
CCn1c(COc2cccc(C)c2C)nnc1SCC(=O)Nc1cc(C(F)(F)F)ccc1Cl | 5.2%
COc1ccc(OC)c(S(=O)(=O)n2ccnc2C(C)C)c1 | i

Quoted at random: 3 compounds from above, in no set order.
compound | Mtb H37Rv
CN(C(=O)CCN1C(=O)C(C)(C)Nc2ccccc21)c1ccccc1 | i
CCn1c(COc2cccc(C)c2C)nnc1SCC(=O)Nc1cc(C(F)(F)F)ccc1Cl | 5.2%
O=C(Nc1ccccc1O)N1c2ccccc2Sc2ccccc21 | i

An excerpt (hit frequency here may not be typical).
